nsP2pro inh = Primary qHTS for inhibitors of NSP2Pro chikungunya virus (CHIKV). Potency, µM (top dose mostly 24.9 µM), inactives show at the top dose activity change, negative = inhibition, actives largely listed as inhibitors. hit rate 1.1% among 31,000. FRET peptide cleavage, nsP2pro, fluorescence 1 h. AID 1964107, 2024; active means well fitted inhibition curve with a large enough effect; inconclusive means small, poorly fitted or top-dose-only effect; inactive means no such curve, though single readings can be large or run the other way; also: nearly all actives have a fitted effect of over 60% in size; a reference inhibitor and vehicle were the controls
Target sequence (Q8JUX6 whole entry, looked up): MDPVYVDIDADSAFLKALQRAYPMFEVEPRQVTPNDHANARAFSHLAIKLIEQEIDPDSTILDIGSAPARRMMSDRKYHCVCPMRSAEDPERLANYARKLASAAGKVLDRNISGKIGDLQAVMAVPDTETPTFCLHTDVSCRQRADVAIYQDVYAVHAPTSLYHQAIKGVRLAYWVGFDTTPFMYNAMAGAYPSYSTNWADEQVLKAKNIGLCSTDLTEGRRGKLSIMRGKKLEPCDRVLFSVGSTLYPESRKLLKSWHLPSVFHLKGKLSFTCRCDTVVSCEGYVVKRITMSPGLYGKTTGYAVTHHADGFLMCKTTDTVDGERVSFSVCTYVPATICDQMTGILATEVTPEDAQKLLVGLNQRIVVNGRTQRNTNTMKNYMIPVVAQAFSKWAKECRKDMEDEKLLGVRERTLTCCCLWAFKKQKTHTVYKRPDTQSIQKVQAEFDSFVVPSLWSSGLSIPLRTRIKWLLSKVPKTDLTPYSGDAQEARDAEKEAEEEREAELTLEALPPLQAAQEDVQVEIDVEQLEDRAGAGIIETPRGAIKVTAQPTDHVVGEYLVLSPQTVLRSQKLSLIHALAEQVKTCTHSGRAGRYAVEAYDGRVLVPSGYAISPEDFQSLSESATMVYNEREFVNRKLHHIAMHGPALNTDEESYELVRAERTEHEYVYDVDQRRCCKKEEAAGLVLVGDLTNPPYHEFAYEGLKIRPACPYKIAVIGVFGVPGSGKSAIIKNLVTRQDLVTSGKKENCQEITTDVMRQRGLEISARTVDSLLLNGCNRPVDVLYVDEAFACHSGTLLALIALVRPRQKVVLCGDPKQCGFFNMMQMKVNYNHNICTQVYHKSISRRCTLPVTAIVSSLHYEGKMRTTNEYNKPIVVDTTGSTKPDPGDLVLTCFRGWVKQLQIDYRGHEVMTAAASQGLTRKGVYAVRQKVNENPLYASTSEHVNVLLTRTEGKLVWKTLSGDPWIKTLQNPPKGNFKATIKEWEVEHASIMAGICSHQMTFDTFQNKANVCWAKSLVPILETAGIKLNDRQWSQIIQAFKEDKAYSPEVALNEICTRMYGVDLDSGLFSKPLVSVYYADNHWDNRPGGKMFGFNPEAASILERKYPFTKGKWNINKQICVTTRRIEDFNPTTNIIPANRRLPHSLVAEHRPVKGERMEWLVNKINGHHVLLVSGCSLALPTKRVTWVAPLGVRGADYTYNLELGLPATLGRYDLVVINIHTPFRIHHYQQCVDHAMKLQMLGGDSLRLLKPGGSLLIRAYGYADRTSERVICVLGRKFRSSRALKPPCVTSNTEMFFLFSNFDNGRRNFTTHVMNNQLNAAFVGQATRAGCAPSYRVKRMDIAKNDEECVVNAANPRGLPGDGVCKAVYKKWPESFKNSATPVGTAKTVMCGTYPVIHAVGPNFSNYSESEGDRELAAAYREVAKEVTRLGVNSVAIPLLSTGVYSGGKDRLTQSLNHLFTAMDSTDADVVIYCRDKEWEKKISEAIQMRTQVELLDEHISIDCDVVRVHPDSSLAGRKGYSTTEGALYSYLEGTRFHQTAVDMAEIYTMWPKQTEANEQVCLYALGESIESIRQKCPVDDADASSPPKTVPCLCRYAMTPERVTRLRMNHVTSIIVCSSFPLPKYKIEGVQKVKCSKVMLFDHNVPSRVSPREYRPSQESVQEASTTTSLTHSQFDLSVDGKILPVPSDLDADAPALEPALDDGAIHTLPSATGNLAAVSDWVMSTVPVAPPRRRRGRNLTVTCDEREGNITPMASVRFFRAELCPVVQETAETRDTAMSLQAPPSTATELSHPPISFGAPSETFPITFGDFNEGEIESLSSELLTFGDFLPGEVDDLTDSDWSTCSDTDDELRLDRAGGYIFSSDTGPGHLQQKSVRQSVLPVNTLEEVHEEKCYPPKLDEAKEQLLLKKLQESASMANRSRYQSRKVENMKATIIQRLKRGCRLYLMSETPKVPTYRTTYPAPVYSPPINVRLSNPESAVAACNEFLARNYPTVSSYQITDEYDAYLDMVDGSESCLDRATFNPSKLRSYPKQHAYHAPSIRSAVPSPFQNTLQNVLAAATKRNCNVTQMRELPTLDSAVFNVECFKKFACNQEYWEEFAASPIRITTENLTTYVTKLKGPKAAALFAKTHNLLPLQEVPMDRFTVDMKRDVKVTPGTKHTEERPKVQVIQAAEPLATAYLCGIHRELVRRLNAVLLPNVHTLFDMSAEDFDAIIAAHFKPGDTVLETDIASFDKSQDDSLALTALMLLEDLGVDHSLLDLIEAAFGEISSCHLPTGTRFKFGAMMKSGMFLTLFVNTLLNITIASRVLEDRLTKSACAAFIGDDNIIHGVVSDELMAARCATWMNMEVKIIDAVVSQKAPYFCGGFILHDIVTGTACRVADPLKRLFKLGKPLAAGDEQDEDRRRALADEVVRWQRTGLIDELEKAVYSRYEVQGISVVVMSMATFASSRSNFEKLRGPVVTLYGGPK
Active calls of the source: *; i = inactive; ? = inconclusive; & = joins results of further samples; [ ] = another dose, or the depositor's remark. % is scaled to controls: 0 for no effect and ±100 for the full control effect; potency is read from the fitted curve at half-maximal effect.

no.	canonical_smiles	nsP2pro inh
1	O=C(Nc1nc(-c2ccccc2)cs1)c1ccncc1NS(=O)(=O)c1ccccc1Cl	i
2	Cc1cc(O)cc(O[C@@H]2O[C@H](CO)[C@@H](O)[C@H](O)[C@H]2O)c1	2%
3	COc1ccc(OC)c(S(=O)(=O)N2CC=C(c3c(C)n(CC(=O)N4CCCC4)c4ccccc34)CC2)c1	-23%
4	O=C(CSc1nc2c([nH]c3ccccc32)c(=O)n1-c1ccc(F)cc1)N1CCCc2ccccc21	-12%
5	CCOc1ccc(CCNC(=O)c2ccnn2Cc2cccc(C)c2)cc1OCC	?
6	CCn1cc(C(=O)N2CCN(c3ccccc3OC)CC2)c(=O)c2cc(S(=O)(=O)N3CCCCC3)ccc21	-7%
7	O=C(COCc1cc(-c2cccs2)on1)N1CCN(c2cccc(Cl)c2)CC1	-12%
8	CCC1CN(C(=O)N2CCC(C(=O)NCCN(CC)CC)CC2)c2cc(C)ccc2O1 (configuration not stated)	-5%
9	CC(C)Cn1c(-c2ccc(S(=O)(=O)N3CCOCC3)cc2)csc1=Nc1cc(Cl)ccc1Cl	-4%
10	O=C(c1ccc2ccccc2n1)N1CCC(n2cc(-c3nc(-c4ccccc4)no3)nn2)C1 (configuration not stated)	i
11	Cc1ccc(NC(=O)Cn2nnnc2-c2ccccc2N)cc1	26%
12	Cc1cc(-n2c(=O)[nH]c(=O)n(C)c2=O)ccc1Oc1ccc(S(=O)(=O)C(F)(F)F)cc1	-3%
13	CCc1cc(C(=O)N2CC[C@@H]3[C@@H](CCC(=O)N3CCN)C2)n(C)n1	-7%
14	CC(O)Cn1cnc2c1c(=O)n(C)c(=O)n2C (configuration not stated)	-2%
15	C#CCN(Cc1ccco1)Cc1cnc(S(C)(=O)=O)n1CCCc1ccccc1	-28%
16	CNc1ccc(-c2nc(-c3ccncc3)no2)cc1[N+](=O)[O-]	-5%
17	CCOCCCN(Cc1ccco1)S(=O)(=O)c1cc2c(cc1C)NC(=O)CO2	-27%
18	CCC12CCCN3CCc4c(n(c5ccccc45)C(O)C1)C32 (configuration not stated)	?
19	NC(=O)C[C@H](N)C(=O)Nc1ccc(Cl)cc1C(=O)c1ccc[nH]1	-3%
20	COc1cccc(C(C)N(C)Cc2nc(-c3cccs3)no2)c1 (configuration not stated)	-1%
21	C[C@@H]1CCC2C(C)(C)[C@H](O)CC[C@]2(C)[C@@]12Cc1c(O)cc3c(c1O2)CNC3=O (some centres not stated)	?
22	Cc1cc(Nc2ccc(F)cc2F)nc(-n2nc(C)cc2C)n1	27%
23	COCCCNC(=O)c1nn(-c2ccc(C)cc2)nc1CO	0%
24	CC1(C)N=C(Nc2nc3ccccc3o2)NC2=C1C(=O)CCC2	2%
25	O=C1NS(=O)(=O)c2ccccc21	20%
26	O=C(c1ccc(OC(F)F)cc1)N1C[C@H](CO)C[C@H](CN2CCCC2)C1	-13%
27	CC(C)Oc1ccc(CNC(=O)c2sc3ncccc3c2-n2cccc2)cc1	-24%
28	CCOCCCNC(=O)C(c1ccccc1)N1Cc2ccccc2C1=O (configuration not stated)	-26%
29	CC(C)c1nc2ccc(C(=O)NCCCN3CCN(c4ccc(F)cc4)CC3)cc2o1	-19%
30	O=C(Nc1cccc(C(=O)N2CCN(c3ccccc3F)CC2)c1)c1nsc2ccccc12	-14%

Quoted at random: 3 entries already listed
no.	canonical_smiles	nsP2pro inh
1	O=C(Nc1nc(-c2ccccc2)cs1)c1ccncc1NS(=O)(=O)c1ccccc1Cl	i
18	CCC12CCCN3CCc4c(n(c5ccccc45)C(O)C1)C32 (configuration not stated)	?
4	O=C(CSc1nc2c([nH]c3ccccc32)c(=O)n1-c1ccc(F)cc1)N1CCCc2ccccc21	-12%

New compounds follow.
no.	canonical_smiles	nsP2pro inh
31	CCN(Cc1ccccc1)C(=O)CN1C(=O)COc2ccc(S(=O)(=O)N3CCOCC3)cc21	-11%
32	CCc1cccc(C)c1NC(=O)c1ccc2c(c1)CCN2S(=O)(=O)CC	-12%
33	CCOC(=O)c1cccc(NC(=O)Cc2ccc(NC(=O)N3CCCCc4ccccc43)cc2)c1	-14%
34	Cc1nn(C(C)C(=O)NCCc2ccccc2)c(=O)c2c1sc1ccccc12 (configuration not stated)	-16%
35	O=C1c2ccccc2C(=O)N1Cc1ccccc1	-5%
36	CCN1C(=O)CN(C(=O)CC(C)C)CC12CCOCC2	i
37	Cc1ccc(NS(=O)(=O)c2ccc(-n3cccn3)cc2)cc1Cl	-3%
38	C=C(C)[C@H]1CN[C@H](C(=O)O)[C@H]1CC(=O)O	0%
39	Cc1cccc(OCC(=O)Nc2ccc3c(c2)nc(CN2CCCCC2)n3C)c1	-16%
40	Cc1cc(NS(=O)(=O)c2cc3c(cc2F)NC(=O)CC3)ccc1Cl	-14%&1%
41	NS(=O)(=O)c1cccc(N=Cc2c(O)[nH]c3ccccc23)c1	14%
42	O=C(C[C@H]1NC(=O)c2ccccc2NC1=O)Nc1ccc(N2CCCS2(=O)=O)cc1	-6%
43	COc1cccc(CN2CC(C(=O)NCc3cc4ccccc4[nH]3)CCC2=O)c1 (configuration not stated)	-12%
44	COc1cccc(-c2no[n+]([O-])c2C#N)c1	-23%
45	NC(=O)C1CCN(c2nc(-c3ccc4c(c3)CCO4)cs2)CC1	3%
46	CC(=O)c1cccc(NC(=O)Cn2nc(C)n3cccc3c2=O)c1	-23%
47	CC(C)Cc1ccc(-c2ccc(=O)n(CC(=O)NCCc3ccccc3)n2)cc1	2%
48	COc1cc(NC(=O)CCC2CCCN(C(=O)CCN3CCCCO3)C2)cc(OC)c1 (configuration not stated)	4%
49	CCOc1ccc(Cc2cc([C@@H]3O[C@H](SC)[C@@H](O)[C@H](O)[C@H]3O)ccc2Cl)cc1	-12%
50	CN(CCc1ccc(Nc2ncc(-c3cccnc3)s2)cc1)Cc1ccccc1	67%[activator]
51	O=[S+]1([O-])N(Cc2ccccc2)C[C@@H](O)[C@]12CCN(Cc1ccc(C(F)(F)F)nc1)C2	-26%
52	Cc1ccc(OCCn2c(CCNC(=O)c3cccnc3)nc3ccccc32)cc1	-14%
53	COc1ccc(C(=O)N[C@@H]2CN(C(=O)Nc3cccc(C(F)(F)F)c3)CCC[C@H]2O)cc1	i
54	O=C(Cn1ncc2c3ccccc3n(Cc3cccc(Cl)c3)c2c1=O)Nc1ccc(F)cc1F	-5%
55	C[C@]1(CO)[C@H]2Cc3sc(-c4ccsc4)nc3[C@@H](CC(=O)Nc3cccc(O)c3)[C@]2(C)CC[C@H]1O	-21%
56	FC(F)(F)c1ccc(CN2CCCC3(CC(Cc4ccccc4)=NO3)C2)cc1 (configuration not stated)	-8%
57	CCc1ccc(-n2c(=O)c3ccccc3n(CC(=O)NCCc3ccc(OC)c(OC)c3)c2=O)cc1	-15%
58	CN1CCC(NCC2(CO)C[C@@H](O)[C@@H](O)C2)CC1 (some centres not stated)	-10%[39.2 µM]
59	Cc1[nH]ccc1C(=O)N(CCN1CCCCC1)CC1CCCN(C2CCCC2)C1 (configuration not stated)	-10%
60	CN1CCCN(S(=O)(=O)c2cn(C)cn2)c2ccccc21	-27%

Sorted by SMILES length (lowest first): part of the list above.
no.	canonical_smiles	nsP2pro inh
50	CN(CCc1ccc(Nc2ncc(-c3cccnc3)s2)cc1)Cc1ccccc1	67%[activator]
56	FC(F)(F)c1ccc(CN2CCCC3(CC(Cc4ccccc4)=NO3)C2)cc1 (configuration not stated)	-8%
47	CC(C)Cc1ccc(-c2ccc(=O)n(CC(=O)NCCc3ccccc3)n2)cc1	2%

More structures follow:
no.	canonical_smiles	nsP2pro inh
61	Cc1cc(N[S+](=O)([O-])c2ccc(NC(=O)Cc3ccc4c(c3)CCCC4)cc2)no1	-10%
62	CC(C)n1cc(C(=O)N2CCCC(c3nnc(Cn4ccnc4)n3C)C2)cn1 (configuration not stated)	0%
63	CCN(CC)c1ccc2cc(-c3nc(-c4ccc(Cl)cc4Cl)cs3)c(=O)oc2c1	-20%
64	CCN(CC)CCOc1ccc(/C(=C(\Cl)c2ccccc2)c2ccccc2)cc1	181%&120%[activator]
65	CC(C)C[C@H](CC(=O)O)C(=O)N[C@@H](Cc1c[nH]c2ccccc12)C(=O)N[C@@H](C)c1ccccc1	-20%
66	CS(=O)(=O)c1ccc2nc(NC(=O)CS(=O)(=O)c3ccc(Cl)cc3)sc2c1	-1%
67	COc1cccc(CNC(=O)CCc2c(C)nc3c(c(C)nn3-c3ccc(C)c(C)c3)c2C)c1	-24%
68	Cc1noc(-c2ccn3c(CNC(=O)COc4ccccc4)nnc3c2)n1	-26%
69	Cn1c(CNC(=O)CC2CCN(S(C)(=O)=O)C2)nc2ccccc21 (configuration not stated)	i
70	COc1cccc(CNC(=O)c2cc3c(=O)oc4ccc(C)cc4c3s2)c1	-16%
71	O=C1CC(c2nnc(Cc3c(F)cccc3Cl)o2)CN1c1ccccc1 (configuration not stated)	-22%
72	CCn1cc(C(=O)N[C@@H]2CN(c3ncccn3)C[C@H]2CO)cn1	0%
73	Oc1ccc(CNc2cc(Cl)ccn2)c2cccnc12	i
74	NC(=O)N1CCCC(C(=O)NCCCn2nccc2C2CC2)C1 (configuration not stated)	i
75	Cc1cccc(NC(=O)CSc2nc(-c3cccs3)cc(C(F)(F)F)c2C#N)c1C	-21%
76	CCc1noc(-c2cn(C3CCN(C(=O)C4(c5ccccc5)CC4)C3)nn2)n1 (configuration not stated)	i
77	Cc1cc(C)c2c(CC(=O)N3CCN(c4cccc(Cl)c4)CC3)coc2c1	10%
78	COc1ccccc1N1CCN(c2ncccc2-c2nc(-c3ccc(Cl)cc3)no2)CC1	?
79	C/C=C(\C)C(=O)OC1CC2C(CC=C3CC(OC4CC(OC)C(OC5CC(OC)C(OC6CC(OC)C(OC7CC(OC)C(O)C(C)O7)C(C)O6)C(C)O5)C(C)O4)CCC32C)C2(O)CCC(C(C)=O)C12C (configuration not stated)	-6%[5.1 µM]
80	C[S+](=O)([O-])N1CC2(CCCCN2Cc2ccccn2)Cc2ccccc21 (configuration not stated)	i
81	Clc1ccc2ncc(-c3cccc(NC4CNC4)n3)n2c1	-16%
82	O=C(Nc1ccccc1)C1=NO[C@@H]2CN(Cc3ccccn3)C[C@H]12	-8%[39.2 µM]
83	Brc1cnc2nc(SCc3ccccc3)[nH]c2c1	-4%
84	O=S(=O)(NCC1CCOCC1)c1cccc(F)c1	-1%
85	Cc1ccc(C2=NN(CC(=O)N(C)C(C)c3ccco3)C(=O)C2)cc1 (configuration not stated)	-6%
86	CCC(C)NC(=O)CCSc1nc(-c2ccc3c(c2)OCO3)cc(C(F)(F)F)n1 (configuration not stated)	-12%
87	COc1ccc(/C=C/C(=O)Nc2sc(C)c(C)c2C(=O)O)cc1	?
88	COc1cccc(-n2ccn(CC(=O)c3ccc(F)cc3)c(=O)c2=O)c1	-17%
89	COc1ccc(S(=O)(=O)N2CCN(S(=O)(=O)c3c(F)cccc3F)CC2)cc1	2%&-5%
90	CCOC(=O)C1=C(C)NC(C)=C(C(=O)OCC)C1c1ccccc1/C=C/C(=O)OC(C)(C)C	-21%&2%
91	O=C(O)c1cccc(-c2noc(-c3ccc(Cl)cc3)n2)c1	i
92	CC1=CC2=C(C)C(=O)[C@](C)(O)[C@H](O)C2=CO1	?
93	CCOc1cc(C(=O)OCc2cc(=O)n3c(C)csc3n2)cc(OCC)c1OCC	-18%
94	Cn1c(CNc2cccc(C(=O)NCc3ccccc3C(F)(F)F)c2)nnc1-c1ccncc1	7%
95	COc1ccc2cc1Oc1ccc(cc1)C[C@H]1c3cc(c(OC)cc3CCN1C)Oc1c(O)c(OC)cc3c1[C@H](C2)N(C)CC3	19%
96	c1coc(-c2nc3n(n2)C2(CCCCC2)[C@@H]2CCCC[C@@H]2N3)c1	-21%
97	CCCC(C)c1c(-c2ccccc2)ncn1CCNC(C)=O (configuration not stated)	4%
98	CCC1CN(C(=O)C2CCN(S(=O)(=O)c3c(C)noc3/C=C/c3ccccc3F)CC2)c2cc(Cl)ccc2O1 (configuration not stated)	-8%
99	Cc1nc(C(=O)N2CC[C@H](NC(=O)c3cnccn3)C[C@H]2C(=O)N[C@@H](Cc2cccs2)C(N)=O)cs1	i
100	COc1cc2nc(-c3ccc(N4CCN(C)CC4)cc3)nc(NCCN3CCOCC3)c2cc1OC	-5%
101	CN1CC2CN(c3ccc4oc5ccccc5c(=O)c4c3)CC2C1 (configuration not stated)	4%[10 µM]
102	Cc1nc2sc(C(=O)N(C)Cc3ccccc3)c(NC(=O)c3ccccc3)c2c(C)c1Cl	-21%
103	CN(C(=O)Cn1c(=O)n(Cc2ccc(C(=O)NCc3ccc4c(c3)OCO4)cc2)c(=O)c2ccccc21)c1ccccc1	-20%
104	O=S(=O)(NC1CCNCC1)c1cc(S(=O)(=O)c2ccccc2)ccc1C(F)(F)F	-5%
105	CC(S)C(=O)NCC(=O)O (configuration not stated)	-5%
106	Cn1cc[nH]c1=S	-1%
107	CC(C)NC(=O)C1COC2(CCCCC2)N1C(=O)Cc1ccccc1 (configuration not stated)	i
108	C=C/C=C/CC1=C(C)[C@H](OC(=O)[C@H]2[C@H](/C=C(\C)C(=O)OC)C2(C)C)CC1=O	3%
109	CCCS(=O)(=O)NC[C@H]1C[C@@H]2CCN1C[C@@H]2c1cc(C2CCCCC2)nn1C	i
110	CCCC[C@H](NC(=O)[C@@H]1[C@@H]2[C@H](CN1C(=O)[C@@H](NC(=O)NC1(CS(=O)(=O)C(C)(C)C)CCCCC1)C(C)(C)C)C2(C)C)C(=O)C(=O)NC1CC1	?
111	Cc1cc(C(F)(F)F)nc(CCNC(=O)C2NCCc3[nH]cnc32)n1 (configuration not stated)	i
112	CNC(=O)C[C@@H](N)C(=O)N[C@@H](C(=O)N[C@@H]1C(=O)N2[C@@H]1SC(C)(C)[C@@H]2C(=O)O)c1ccc(O)cc1	3%

Screens deposited in PubChem by National Center for Advancing Translational Sciences (NCATS).

Not all compounds are listed; count on the stated rates, not on these rows.
